Screening data from PubChem.
PMP22 txn prim: PMP22 gene transcription modulation. S16 Pmp22-F2sN Schwann cells (luciferase reporters placed in the Pmp22 gene), FLuc/NLuc coincidence luminescence, 24 h. Potency, µM (highest dose often 57.5 µM), for the others: at the highest dose activity change, negative = inhibition, usual class: inhibitors. hit rate 2% among 43,000. AID 1508649; active = clear falling dose curves in both reporters; inconclusive = both reporters move, but less clearly or upward; inactive = either reporter flat; the % is the NLuc reporter signal; note: % is set by controls: 0 for no effect and ±100 for the full control effect; some results filed as inactive show a strong effect at the top dose
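Transcriptional readout in edited S16(c9) cells: two luciferases reported from the Pmp22 locus, measured in turn after 24 h compound incubation.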
HTT prom inh: HTT promoter inhibition; HEK293 HTT promoter firefly luciferase reporter (activity 0% = vehicle and -100% = no light), 24 h; Potency, µM (top dose mostly 57.5 µM), without a hit: at the highest dose activity change, negative = inhibition, usual class: inhibitors; hit rate 0.93% among 48,000; AID 1508623; active = well fitted inhibition curve with a large enough effect; inconclusive = small, poorly fitted or top-dose-only effect; inactive = no such curve, though single readings can be large or run the other way; note: nearly all actives have a fitted effect of over 50% in size
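Firefly luciferase readout (Dual-Glo, 10 min RT) after 24 h, 37 °C compound exposure (final up to 57.5 uM) of HEK293 reporter cells cultured 24 h beforehand; PTC124 at 50 uM final as control inhibitor; activity scaled vehicle 0%, zero RLU -100%.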
The depositor's hits bear a star; ? = inconclusive; . = not tested or not shown. Potency is the fitted concentration of half-maximal effect.

1. Cc1cc(O)c(C(c2cccc(F)c2)N2CCC(C)CC2)c(=O)n1Cc1ccco1 (centres undefined)
2. O=C(c1ccc(F)cc1)n1nc(-c2cccnc2)nc1NCc1ccccc1
3. Cc1c(Cl)cccc1-c1ccc(CNc2ccc3[nH]c(=O)[nH]c3c2)o1
4. O=C(Nc1ccc2nc(SCC(=O)N3CCCc4ccccc43)sc2c1)c1ccc(F)cc1
5. COc1ccc(CN2C(=O)N(c3ccc(C)cc3)C(=O)C2CC(=O)Nc2ccccc2)cc1OC (centres undefined)
6. CCc1ccc(C(=O)c2cn(CC(=O)Nc3ccc(OC)cc3)c3cc4c(cc3c2=O)OCO4)cc1

Assay by compound	1	2	3	4	5	6
HTT prom inh	-9.8%	-26.2%	?	?	-0.8%	-10.0%
PMP22 txn prim	5.2%	-72.2%	?	-47.7%	0.9%	?

7. Cc1ccc(OCc2nc(-c3ccc(C(=O)N4CCN(c5cccc(C(F)(F)F)c5)CC4)cc3)oc2C)cc1
8. Cc1nc(-c2ccc(F)cc2)sc1CCNC(=O)c1ccc(OC(C)C)cc1
9. COc1ccc(-c2csc3nc(-c4ccc(C)cc4)oc(=O)c23)cc1OC
10. COC(=O)c1sc2cccc(F)c2c1S(=O)(=O)NCc1ccc(Cl)cc1
11. CSCCC(NS(=O)(=O)c1ccc2c(c1)oc(=O)n2C)C(=O)NCc1ccccc1 (centres undefined)
12. COc1cc(/C=C/c2nc(C#N)c(NC(C)c3ccccc3)o2)cc(OC)c1OC (centres undefined)

Assay by compound	7	8	9	10	11	12
HTT prom inh	?	?	14.1%	0.7%	-10.6%	-29.5%
PMP22 txn prim	-17.2%	?	?	2.5%	1.9%	?

13. c1ccc(CNc2nc(N3CCOc4ccccc43)nc3c2CCCC3)cc1
14. Cc1ccc([N+](=O)[O-])c(Oc2ncnc3c2oc2ccccc23)c1
15. O=S1(=O)c2ccccc2N(Cc2ccccc2Cl)c2ccccc21
16. Cc1ccc(-c2nc3c(cnn3-c3ccccc3)c(=O)n2-c2ccc(Cl)cc2)cc1
17. Cc1cccc(C)c1OC(=O)CSc1nnc(-c2ccc3c(c2)OCO3)o1
18. O=C(CSc1nc2c(c(=O)[nH]1)CN(Cc1ccc(F)cc1)CC2)Nc1cccc(C(F)(F)F)c1

Assay by compound	13	14	15	16	17	18
HTT prom inh	-16.7%	-19.3%	-1.8%	-24.7%	-1.4%	?
PMP22 txn prim	.	21.1%	5.6%	?	-19.4%	?

Single records, from the list above.
Cc1cccc(C)c1OC(=O)CSc1nnc(-c2ccc3c(c2)OCO3)o1 as listed: HTT prom inh: -1.4%; PMP22 txn prim: -19.4%
Cc1ccc([N+](=O)[O-])c(Oc2ncnc3c2oc2ccccc23)c1 as listed: HTT prom inh: -19.3%; PMP22 txn prim: 21.1%

Remaining list, next part
19. O=C(Cn1c(=O)n(CC2CCCO2)c(=O)c2ccccc21)Nc1cccc(Cl)c1 (centres undefined)
20. CCCCc1nn2c(=O)cc(COC(=O)c3ccc(NC(=O)C4CCCCC4)cc3)nc2s1
21. CC1CCCN(S(=O)(=O)c2ccc3c(c2)c(=O)nc2ccccn23)C1 (centres undefined)
22. Cc1ccc(NC(=O)Cn2c(=O)n(Cc3ccc4c(c3)OCO4)c(=O)c3oc4ccccc4c32)cc1C
23. CN(C)N=Nc1nc[nH]c1C(N)=O
24. Cc1ccc(C(=O)Nc2ccc3oc(-c4cc(Br)ccc4Cl)nc3c2)cc1

Assay by compound	19	20	21	22	23	24
HTT prom inh	-11.3%	11.2%	-21.7%	-12.0%	?	?
PMP22 txn prim	27.5%	-53.4%	4.4%	?	.	-23.5%

25. CCCn1c(CNC(=O)c2ccc(F)cc2)nc2ccccc21
26. COc1cccc(CNCCSc2nnnn2C)c1OCc1ccc(Cl)cc1Cl
27. Cc1cccc(-c2nc(CN3CCCC(C(=O)NCc4ccc(Cl)cc4)C3)c(C)o2)c1 (centres undefined)
28. COC(=O)C1CCN(S(=O)(=O)c2cc3c4c(c2)CC(=O)N4CCC3)CC1
29. Cc1ccc2onc(CNC(=O)N3CCN(c4cc(Cl)ccc4C)CC3)c2c1
30. CCCCC(=O)NC1(C(F)(F)F)C(=O)Nc2c1c(=O)[nH]c(=O)n2-c1ccc(F)cc1 (centres undefined)

Assay by compound	25	26	27	28	29	30
HTT prom inh	0.4%	?	?	-20.0%	?	-11.2%
PMP22 txn prim	4.2%	?	?	-6.4%	-25.1%	-3.7%

31. CCOC(=O)c1c(S(=O)(=O)N2CCC(C(=O)NCc3ccccc3OC)CC2)c(C)n(C)c1C
32. Oc1c(Cl)cc(Cl)c2cccnc12
33. C=CCNC(N)=S
34. COc1cccc(NC(=O)c2oc3ccccc3c2NC(=O)c2ccc(F)c(F)c2)c1
35. O=C(Cn1ncc2c(Cl)cccc21)NCc1cccc(Br)c1
36. Cc1ccc2nc(COc3ccccc3NC(=O)C(C)(C)C)cc(=O)n2c1

Assay by compound	31	32	33	34	35	36
HTT prom inh	-6.1%	?	1.3%	1.2%	-4.5%	-7.3%
PMP22 txn prim	7.3%	.	.	-28.8%	-7.7%	-5.7%

37. COc1ccc(CNC(=O)c2cc3c(s2)-c2ccccc2OC3)cc1
38. COc1cccc(NC(=O)c2ccc(CNS(=O)(=O)c3ccc4c(c3)C(C)(C)C(=O)N4C)cc2)c1
39. CCOc1ccccc1CNc1nc2nc(C)c(CC(=O)OC)c(=O)n2[nH]1
40. Cc1ccc(OCC(=O)Nc2ccc(C(=O)OCc3cc(=O)n4ccsc4n3)cc2)cc1C
41. CCOc1ccccc1NC(=O)Nc1cc2c(cc1N1CCCCC1)n(CC)c(=O)n2CC
42. COc1ccc(-c2cn3c(n2)sc2cc(C(=O)Nc4ccc(F)cc4Cl)ccc23)cc1

Assay by compound	37	38	39	40	41	42
HTT prom inh	-14.6%	?	-15.7%	?	?	24.4%
PMP22 txn prim	-20.7%	?	3.4%	-9.1%	?	-45.9%

43. CCN(c1ccccc1C)S(=O)(=O)c1nnc(NC(=O)c2ccccc2C)s1
44. CCn1c2ccccc2c2cc(CN3CCN(Cc4ccccc4Cl)CC3)ccc21
45. COCCCNC(=O)c1ccc(C)c(-n2c(C)nc3cccnc32)c1
46. O=C(CCc1ccccc1)NCc1ccc2c(c1)CCN2C(=O)c1ccccc1
47. COc1cc(OC)c(NC(=O)N2CCN3CCCCC3C2)cc1Cl (centres undefined)
48. CCc1nn(CC(=O)NCCCN2CCN(CC)CC2)c(=O)c2cc3occc3n12

Assay by compound	43	44	45	46	47	48
HTT prom inh	-28.2%	-14.3%	-7.3%	-7.8%	-4.4%	-10.5%
PMP22 txn prim	-6.1%	-9.3%	-1.5%	-4.8%	5.7%	-28.3%

49. CCCSc1ncc(Cl)c(C(=O)Nc2ccc(S(=O)(=O)Nc3ncccn3)cc2)n1
50. CCOC(=O)C(C)NC(=O)C1CCN(c2ncnc3c2nc2n3CCCCC2)CC1 (centres undefined)
51. COc1ccc2nc(NC(=O)c3nc(S(=O)(=O)Cc4cccc(C)c4)ncc3Cl)sc2c1
52. COc1ccccc1CNC(=O)c1ccc(Cn2c(SCc3ccccc3)nc3cccnc32)cc1
53. CCOC(=O)c1c(C)[nH]c(CCC(=O)NCc2cc(OC)c(OC)c(OC)c2)c1C
54. COc1ccc(Cc2nc3c4cnn(-c5cccc(F)c5)c4ncn3n2)cc1

Assay by compound	49	50	51	52	53	54
HTT prom inh	-15.1%	5.7%	?	-14.1%	2.4%	-16.2%
PMP22 txn prim	?	?	6.23µM*	?	16.8%	-0.9%

55. CCCNC(=O)c1cnn2c(C)c(Cc3c(C)cc(C)cc3C)c(C)nc12
56. CCOC(=O)c1[nH]c2ccccc2c1NC(=O)c1ccc(OC)c(OC)c1
57. CCCCCn1c(-c2ccc(OC)c(OC)c2)nc2ccccc21
58. Cc1ccc(NC(=O)CCNS(=O)(=O)c2cccs2)cc1F
59. CCOC(=O)c1c(C)c(-c2ccccc2)n(CC(=O)Nc2ccc(OCC)cc2)c1C
60. COc1cc(OC)c(NC(=O)C(NS(=O)(=O)c2cccc3nsnc23)c2ccccc2)cc1Cl (centres undefined)

Assay by compound	55	56	57	58	59	60
HTT prom inh	5.01µM*	-13.7%	13.1%	15.6%	-9.5%	?
PMP22 txn prim	15.8µM*	-8.8%	-0.8%	6.2%	1.4%	-9.7%

61. Cc1ccc(-c2nc(SCC(=O)N3CCc4ccccc43)c3c(=O)n(C)c(=O)n(C)c3n2)cc1
62. CCCOc1ccc(C(=O)Nc2ccc(-c3cc4ccccc4oc3=O)c(C)c2)cc1
63. COc1cccc(-c2nc(C(N)=O)c3c(n2)n(-c2ccc4c(c2)OCO4)c(=O)n3C)c1OC
64. CCN(C(=O)c1cc2c(s1)-c1ccccc1OC2)c1cc(Cl)ccc1OC
65. Cc1ccccc1NC(=O)CSCn1nnc2c(=O)[nH]c(Cc3ccc(F)cc3)nc21
66. Cc1c(C)n(Cc2ccccc2)c2ccc(C(=O)NCCc3ccccc3Cl)cc12

Assay by compound	61	62	63	64	65	66
HTT prom inh	7.2%	?	-12.6%	?	-7.5%	-6.4%
PMP22 txn prim	-8.2%	-29.1%	?	?	4.2%	-24.1%

67. O=C(Nc1cccc(C(=O)OCc2cc(=O)n3nc(C4CC4)sc3n2)c1)c1cccc(F)c1
68. CC(C)c1ccc(NC(=O)c2ccc3oc(=O)c(S(=O)(=O)c4ccc(F)cc4)cc3c2)cc1
69. Cc1ccc(CSCC(=O)N2CCN(c3cc(Cl)ccc3C)CC2)cc1
70. CCOc1ccccc1NC(=O)c1nnn(CC(=O)Nc2ccc(OC)c(OC)c2)c1N
71. Cc1ccc(C)c(CN2CCCN(Cc3ccc(F)cc3)S2(=O)=O)c1
72. CCOC(=O)C1CCCN(C(=O)c2ccc3c(c2)N(Cc2cccc(Cl)c2)C(=O)c2ccccc2S3(=O)=O)C1 (centres undefined)

Assay by compound	67	68	69	70	71	72
HTT prom inh	-18.3%	?	-14.6%	-18.5%	-14.4%	?
PMP22 txn prim	-2.1%	?	10.2%	-15.1%	0.2%	-9.7%

Five compounds picked at random from those above, as already listed:
68. CC(C)c1ccc(NC(=O)c2ccc3oc(=O)c(S(=O)(=O)c4ccc(F)cc4)cc3c2)cc1
67. O=C(Nc1cccc(C(=O)OCc2cc(=O)n3nc(C4CC4)sc3n2)c1)c1cccc(F)c1
72. CCOC(=O)C1CCCN(C(=O)c2ccc3c(c2)N(Cc2cccc(Cl)c2)C(=O)c2ccccc2S3(=O)=O)C1 (centres undefined)
69. Cc1ccc(CSCC(=O)N2CCN(c3cc(Cl)ccc3C)CC2)cc1
70. CCOc1ccccc1NC(=O)c1nnn(CC(=O)Nc2ccc(OC)c(OC)c2)c1N

Assay by compound	68	67	72	69	70
HTT prom inh	?	-18.3%	?	-14.6%	-18.5%
PMP22 txn prim	?	-2.1%	-9.7%	10.2%	-15.1%

Remaining list, next part:
73. COc1ccc(CNC(=O)c2cnc3sc(N4CCCC4)nn3c2=O)cc1OC
74. COc1ccc(OCC(=O)Nc2cccc(C(=O)OCc3cc(=O)n4nc(C)sc4n3)c2)cc1
75. CCOc1cccc(CNCCNC(=O)c2nonc2N)c1
76. Cc1cc(C)cc(N2C(=O)CC(c3ccc(C(F)(F)F)cc3)C3=C2COC3=O)c1 (centres undefined)
77. COc1cc(NC(=O)c2nc3ccccc3nc2N2CCCCC2)cc(OC)c1OC
78. CCC(=O)N1CCc2cc(CNC(=O)c3cccc(N(C)C)c3)ccc21

Assay by compound	73	74	75	76	77	78
HTT prom inh	-21.1%	-9.3%	29.6%	-5.6%	12.7%	-13.9%
PMP22 txn prim	3.3%	-46.2%	-22.0%	-0.6%	-24.3%	?

79. CCN(CC)S(=O)(=O)c1nnc(NC(=O)COc2ccc(C)cc2)s1
80. Cc1ccnc(NS(=O)(=O)c2ccc(NC(=O)Nc3ccc(S(=O)(=O)Nc4nccc(C)n4)cc3)cc2)n1
81. CCn1ccc2cc(S(=O)(=O)N3CCC(C(=O)NCCc4ccccc4)CC3)ccc21
82. CCN(CC)CCNC(=O)c1sc2ncccc2c1-n1cccc1
83. O=[N+]([O-])c1cc(-c2nc(-c3ccccc3)no2)ccc1NC1CCCCC1

Assay by compound	79	80	81	82	83
HTT prom inh	-17.4%	2.3%	0.0%	0.0%	-13.3%
PMP22 txn prim	2.7%	.	6.9%	-6.6%	15.8%
